# Compound activity (PubChem BioAssay)
# AmpC inh no det: Promiscuous and Specific Inhibitors of AmpC Beta-Lactamase (assay without detergent); P00811; AID 585, 2007; Potency, µM (titrated, usually from 28.7 µM), for the others: at the top dose activity change, negative = inhibition; 71,000 tested, 1.8% active; AmpC nitrocefin hydrolysis, absorbance 480 nm, no detergent; potencies from a single point are estimates; active = falling curve, for most hits resting on a single point; inconclusive = weak or doubtful change; inactive = flat or rising curve; also: % of control where 0% means no effect; about half of the hits show no inhibition at the top dose; a quarter of the inactives give rising signals
# Target sequence (P00811 whole entry, looked up): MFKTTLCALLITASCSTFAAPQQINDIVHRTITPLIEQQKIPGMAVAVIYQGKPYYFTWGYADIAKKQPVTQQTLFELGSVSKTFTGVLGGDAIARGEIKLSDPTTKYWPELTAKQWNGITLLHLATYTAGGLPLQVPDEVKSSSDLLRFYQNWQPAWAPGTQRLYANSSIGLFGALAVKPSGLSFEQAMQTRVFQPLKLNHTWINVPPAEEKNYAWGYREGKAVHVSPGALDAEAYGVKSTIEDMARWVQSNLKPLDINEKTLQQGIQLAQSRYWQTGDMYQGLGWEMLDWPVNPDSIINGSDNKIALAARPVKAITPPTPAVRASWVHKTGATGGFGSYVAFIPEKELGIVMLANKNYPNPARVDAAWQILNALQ
#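 AmpC, 20 mM phosphate pH 7.0; 15 min cpd preinc, RT; start with nitrocefin (800 uM stock); A480 kinetic read, 20 s intervals, 4 min. No-enzyme wells = negative control.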
# Numbers without * were called inactive; ? = inconclusive; & = joins results of further samples; [ ] = remark or other dose. Potency is read from the fitted curve at half-maximal effect. A portion of the library. The share of hits here may be higher or lower than overall.
smiles,AmpC inh no det
COc1ccc(CNc2ccnc(-c3ccccc3C(F)(F)F)n2)c(OC)c1,34%
Clc1ccccc1-c1nc(N2CCNCC2)c2ccccc2n1,-1%
O=C(CCNS(=O)(=O)c1cccc2nsnc12)NC1CCN(Cc2ccccc2)CC1,-5%
O=C(NC1CCCCCC1)c1cc(S(=O)(=O)N2CCC3(CC2)OCCO3)ccc1F,73%
CCCc1cc(C(=O)Nc2ccc(C)cc2)no1,4µM*[single pt active]
O=C(Nc1ccc(OC(=O)c2cccnc2)cc1)c1cccnc1,-4%
COc1ccc(CCN(C)C(=O)N2CCOCC2)cc1OC,-6%
CCC(NS(=O)(=O)c1ccc(C)cc1)C(=O)Nc1ccc(NC(C)=O)cc1 (stereo unspecified),-1%
COc1cc2nc(N3CCN(C(=O)[C@H]4CCCO4)CC3)nc(N)c2cc1OC,23%&7%
CCOc1cc(N2CCOCC2)c(OCC)cc1NC(=O)COC(=O)CCc1c[nH]c2ccccc12,119%
CCOc1ccc(-n2cc(C(=O)N3CCCCCC3)c3cc(OC)c(OC)cc3c2=O)cc1,112%
COc1ccc(CNC(=O)C2CC(=O)N(c3ccc(OCC(=O)N4C(C)CCCC4C)cc3)C2)cc1 (stereo unspecified),88%
COCCn1c(=O)c(C)nc2cncnc21,93%
O=C(c1cccc(F)c1)N1CCC2(CC1)CCN(c1ccccc1)CC2,99%
COc1cccc(C2C(C#N)=C(N)OC3=C2C(=O)CC(c2ccco2)C3)c1OCc1ccc(F)cc1 (stereo unspecified),-15%
Cc1ccc(N2CCn3c2nc2c3c(=O)n(CCc3ccccc3)c(=O)n2C)cc1,24%
COc1cc(CN2CCN(S(=O)(=O)c3ccc(F)cc3)CC2)cc(OC)c1OC,54%
O=C(O)/C=C\C(=O)O,0%
COc1ccc2c(c1)CCc1c(C(=O)NCCCn3ccnc3)noc1-2,62%
Nc1c2c(nc3ccn(Cc4ccccc4)c(=O)c13)CCC2,6%
O=C(COC(=O)CCCc1c[nH]c2ccccc12)Nc1ccc2c(c1)OCO2,-13%
CCOc1cc(NC(=O)c2ccco2)c(OCC)cc1NC(=O)Cc1cccc(OC)c1,83%
Nc1nc2nccc(-c3ccc(Cl)cc3)n2n1,-15%
CCN1CCCC1Cn1c(-c2ccccc2)nc2c(NC3CCCCC3)nc(C)nc21 (stereo unspecified),114%
C/C(CC1(O)C(=O)N(C)c2ccccc21)=N\O (stereo unspecified),2%
CCCCNC(=O)OCCNC(=O)NC,0%
N#CC1=C(SCC(=O)NC2CC2)NC(=O)C(C#N)C12CCCCC2 (stereo unspecified),1%
O=C(Nc1ccc(Br)cc1F)C1CCN(c2nnc(-n3cccc3)s2)CC1,6%
O=C(CN1CCOCC1)N1CCN(c2nnc(-c3ccccc3)c3ccccc23)CC1,78%
COc1ccc(OC)c(S(=O)(=O)NCc2cn3ccsc3n2)c1,-5%

# Later entries.
smiles,AmpC inh no det
COc1ccc(CN(C2CCCC2)S(=O)(=O)c2ccc(-n3cnnn3)cc2)cc1,4%
C=CCn1c(SCC(=O)N(CC)CC)nc(O)cc1=O,1%
Cc1cc(C)cc(NC(=O)CSc2nnc(CNC(=O)c3cccs3)o2)c1,12%
CSc1nnc2c3ccccc3n(CCc3ccccc3)c2n1,19%
CCN(CCNC(=O)C1CCN(S(=O)(=O)c2cccc3nsnc23)CC1)c1ccccc1,51%
CCOC(=O)O[C@@H](C)OC(=O)[C@@H]1N2C(=O)[C@@H](NC(=O)[C@@H](N)c3ccccc3)[C@H]2SC1(C)C,20%[12.8 µM]
CCCSc1nnc(Sc2nnnn2-c2ccccc2)s1,-6%
COC(=O)N1CC(C)N(C(=O)OC)CC1C (stereo unspecified),-5%
CN1CCN(S(=O)(=O)c2ccc(-c3ccccc3)cc2)CC1,12%
O=C(NCCC1=CCCCC1)C1CCN(S(=O)(=O)c2cccs2)CC1,9%
Cc1nc(SCC(=O)NCC2CCCO2)c2oc3ccccc3c2n1 (stereo unspecified),41%
O=C(Nn1cnnc1)c1cc2cc(Br)ccc2oc1=O,2%
CC(=O)C1=C(N2CCCCC2)CCC1=O,-5%
Cc1ccc(CN2CCN(C(=O)C3CCCO3)CC2)cc1 (stereo unspecified),22%
O=c1c(CCc2ccccc2)nc2cnc(N3CCOCC3)nc2n1CCc1ccccc1,2%
COc1ccc(-c2nc(CS(=O)CC(=O)N3CCc4ccccc4C3)c(C)o2)cc1 (stereo unspecified),91%
COc1ccc(C)cc1NC(=O)CN(c1ccccc1)S(C)(=O)=O,28%
O=C(CCNS(=O)(=O)c1ccc(Br)s1)NC1CCCC1,-1%
COc1cccc(-n2nnc3c(=O)n(CC(=O)NCC4CCCO4)cnc32)c1 (stereo unspecified),-22%
Cc1cccc(CNc2ncnc3ccc(-c4ccoc4)cc23)c1,-3%
COC(=O)C1CCCN1C(=O)c1cccs1 (stereo unspecified),-6%
Nc1nc(N)c2nc(-c3ccccc3)c(N)nc2n1,?
NCCC[C@@H](CC(=O)N[C@@H]1CCCC[C@H]1C(=O)N[C@H](CC(=O)N[C@@H](CCC(=O)O)CC(=O)O)Cc1c[nH]c2ccccc12)NC(=O)C[C@H](Cc1c[nH]c2ccccc12)NC(=O)[C@@H]1CNCC[C@H]1N,128%
O=c1cc(-c2ccccc2)oc2cc(O)c(O)c(O)c12,7.9µM*
NS(=O)(=O)c1ccc(NCc2cnc3ccccc3n2)cc1,0%[5.75 µM]
O=C(Nc1cccnc1)c1cc2nc(C3CC3)cc(C(F)(F)F)n2n1,5%
COc1ccc(CC(=O)Nc2c3c(nn2-c2cccc(C)c2C)CS(=O)C3)cc1OC (stereo unspecified),9%
O=C(c1c(F)cccc1F)N1CCN(c2cccc(C(F)(F)F)c2)CC1,50%
COc1ccc(-c2nnc3ccc(SCC(=O)NCc4ccco4)nn23)cc1,-2%
COCC(C)OC(=O)C(C#N)c1nc2ccccc2nc1N1CCN(Cc2ccccc2)CC1 (stereo unspecified),131%

# 2 entries from above, field by field:
NCCC[C@@H](CC(=O)N[C@@H]1CCCC[C@H]1C(=O)N[C@H](CC(=O)N[C@@H](CCC(=O)O)CC(=O)O)Cc1c[nH]c2ccccc12)NC(=O)C[C@H](Cc1c[nH]c2ccccc12)NC(=O)[C@@H]1CNCC[C@H]1N
  AmpC inh no det: 128%
O=c1cc(-c2ccccc2)oc2cc(O)c(O)c(O)c12
  AmpC inh no det: 7.9µM*

# Other entries follow:
smiles,AmpC inh no det
O=C1NCC2=C1C(c1ccc(Br)cc1)Nc1ccccc1N2 (stereo unspecified),24%
COc1ccc(-c2nnc(CSc3nc4ccccc4c(=O)n3CC3CCCO3)o2)cc1OC (stereo unspecified),74%
Cc1c(NC(=O)CSc2nnc(-c3cccc(Cl)c3)o2)c(=O)n(-c2ccccc2)n1C,-4%
CCOC(=O)Cc1c(C)c2ccc(N(CC)CC)cc2oc1=O,65%
COC(=O)[C@@]1(Cc2ccc(OC)cc2)[C@H]2c3cc(C(=O)N4CCCC4)n(Cc4cc(F)c(F)c(F)c4)c3C[C@H]2CN1C(=O)c1ccccc1,102%
CC(NC(=O)c1cccnc1)C(c1cccs1)N1CCOCC1 (stereo unspecified),-3%
CN(C)S(=O)(=O)c1ccc2c(c1)/C(=C/c1cc3c([nH]1)CCCC3)C(=O)N2,30%
Cc1cc(=O)n2[nH]c(-c3ccc(Cl)cc3)cc2n1,-19%
CC(N)=O,12%
CC(=O)Nc1cccc(OCC(=O)NS(=O)(=O)c2ccc(Cl)cc2)c1,-14%
O=C(CSc1nnc2scc(-c3ccc(Cl)cc3)n12)NCc1ccc2c(c1)OCO2,12%
O=C(c1cc(C(F)(F)F)cc(C(F)(F)F)c1)N1CCC2(CC1)CN(Cc1ccncc1)C2,74%
COC(=O)c1ccc(Oc2nc(NC(C)C)nc(SC)n2)cc1,5%
C/C(=N\S(=O)(=O)c1ccc(C)cc1)N1CCN(S(=O)(=O)c2ccccc2)C1,43%
N#CCSc1nnc(COc2ccc3ccccc3c2)o1,17%
CNC(=O)CN1C(=O)CSc2nc(C)cc(C)c21,-7%
Cc1cnc(C(=O)Nc2nnc(C)s2)cn1,1%
CC(NS(=O)(=O)c1ccccc1)C(c1cccs1)N1CCN(C)CC1 (stereo unspecified),13%
CS(=O)(=O)N(CC(=O)NCC1CCCO1)c1ccc(Cl)c(Cl)c1 (stereo unspecified),35%
CC(C)CCSc1nc2c(c(=O)[nH]c(=O)n2C)n1CCCc1ccccc1,5%
CN(C)c1cccc(C(=O)NCC2CCCO2)c1 (stereo unspecified),4%
CCn1cc(C(=O)NC2CCCCC2C)c(=O)c2ccc(C)nc21 (stereo unspecified),70%
CCOC(=O)C1=C(N)Oc2cc(O)ccc2C1c1cccnc1 (stereo unspecified),-13%
COC(=O)CSc1nnc(SCc2ccc(OC)cc2)s1,11%
Cn1c(=O)c2c(nc(CN3CCN(c4ccccc4)CC3)n2Cc2ccccc2F)n(C)c1=O,130%
O=C(CN1CCOCC1)NCc1ccccc1,1%
Cc1cccc(N2CCN(CC(=O)NCC3CCCCC3)CC2)c1C,117%
CCOC(=O)Cc1csc(NC(=O)CSc2ncnc3c2cnn3-c2ccc(OC)cc2)n1,66%
CCCN(CCC)c1ncnc2c1cnn2-c1ccc(OC)cc1,85%
Cc1ccccc1Cn1c(=O)c2c(nc3n2CCN3Cc2ccco2)n(C)c1=O,35%

# (list continues)
smiles,AmpC inh no det
O=C(CSc1nnc(-c2ccccc2)o1)NC1CCCCC1,0%
O=C(Nc1cccc(F)c1)N1CC[C@@]2(CCCN(C(=O)c3cccc(F)c3)C2)C1,9%
COc1cc(CNC(=O)CCCC/C=C/C(C)C)ccc1O,8%
CC(NC(=O)Nc1ccccc1O)(C(F)(F)F)C(F)(F)F,5%
CCCC(=O)N(Cc1cc2cccc(C)c2[nH]c1=O)c1ccccc1OC,61%
CCOC(=O)C1CCCN(C(=O)c2ccc(CS(=O)(=O)c3ccc(Br)cc3)o2)C1 (stereo unspecified),73%
CCOC(=O)c1nnn(-c2nonc2-c2ccccc2)c1C,6%
COc1cc(SC)ccc1C(=O)NC1CCCCC1,12%
COc1ccc(C(=O)Cn2nnc(-c3ccc(N4CCOCC4)cc3)n2)cc1OC,83%
Cc1cc(C)n2c(Br)c(CSc3nc4ccccc4o3)nc2n1,95%
N#CC1=C(N)OC2=C(CCC/C2=C/c2ccoc2)C1c1ccoc1 (stereo unspecified),-3%
CCC(C)NC(=O)CSc1nc2ccc(N3CCOCC3)cc2c(=O)n1CCc1ccccc1 (stereo unspecified),12%
CCCn1c(SCC(=O)N2CCc3ccccc32)nnc1-c1ccncc1,68%
COc1ccc(NC(=O)CSC2CCCCC2)cc1,-5%
CC1(C)OC(=O)C(=CNc2ccccc2F)C(=O)O1,-7%
Cc1ccc(C[N+](C)(C)C)o1,10%
O=C(CN1CCOCC1)Nc1scc(-c2ccccc2)c1C(=O)N1CCOCC1,42%
Cc1ccc2nsnc2c1-n1c(C)nc2ccccc2c1=O,-3%
C/C(C[n+]1ccccc1)=N\N=C(N)N,16%[5.75 µM]
CC(=O)Nc1c(C(=O)NCc2ccccc2)nnn1Cc1ccccc1,0%
Cc1c(C(=O)OC2CCC(C)CC2)[nH]c2c1C(=O)CCC2 (stereo unspecified),22%
Cc1nc(NCc2ccco2)[nH]c(=O)c1CCC(C)C,-9%
CCOC(=O)c1c(C)[nH]c(C(=O)OCC(=O)Nc2cc(C)ccc2OC)c1C,14%
CCOc1ccccc1NS(=O)(=O)c1ccc(Br)s1,-15%
COc1ccc2[nH]cc(CCNc3cc(-c4ccccc4OC)ncn3)c2c1,16%
O=C(Cn1cc2c(n1)CCCC2)NCCCN1CCN(Cc2ccccc2)CC1,34%
CCOC(=O)CCc1n[nH]c(=O)[nH]c1=O,-1%
CCCN(C/C=C\I)[C@@H]1CCc2cccc(O)c2C1,19%
CC1(C)C(c2ccccc2)=[N+]([O-])CN1O,-4%
C#CCNc1cc(C)nc2ncnn12,-2%

# New compounds follow:
smiles,AmpC inh no det
O=C1CNC(=O)/C1=C\N1CCN(C(c2ccccc2)c2ccccc2)CC1,82%
O=[N+]([O-])c1cc(Cl)c(Cl)cc1Cl,-7%
O=P1(Nc2ccc(F)cc2)COc2ccccc2OC1,12%
CSc1nc(NC(C)(C)C)nc(Oc2ccc(=O)[nH]n2)n1,-11%
CCOc1c(C)cc(-c2ncccc2O)cc1C,-5%
CCC(=O)c1ccccc1OCCCn1cncn1,40%
CN(C)C(=O)NC1CCCCCCCCCCC1,8%
COc1ccc2ccccc2c1/C=N/O,-5%
COc1ccccc1NC(=O)CSc1nc(O)cc(=O)n1-c1ccccc1OC,9%
CCCCN1CCCC[C@H]1C(=O)Nc1c(C)cccc1C,-9%[12.8 µM]
Cc1cccc(NC(=O)c2cnc3sccn3c2=O)c1C,-2%
CCN(CC)c1ccc(-n2c(C)c(C(C)=O)c(C(C)=O)c2C)cc1,71%

# A different layout for part of the listing above.
> O=C1CNC(=O)/C1=C\N1CCN(C(c2ccccc2)c2ccccc2)CC1
  AmpC inh no det = 82%
> CSc1nc(NC(C)(C)C)nc(Oc2ccc(=O)[nH]n2)n1
  AmpC inh no det = -11%
> Cc1cccc(NC(=O)c2cnc3sccn3c2=O)c1C
  AmpC inh no det = -2%
> COc1ccc2ccccc2c1/C=N/O
  AmpC inh no det = -5%
